# Screens from PubChem BioAssay.
# Sa ugtP lethal: growth inhibition of ugtP-null S. aureus, primary screen, RN4220 ugtP deletion, OD600; growth inhibition, % (test concentration not listed); 330,000 compounds, 0.54% hits; 16 h; some inactives read as strong as hits;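 active = z-score under -3 and OD600 up to 0.15 on both plates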;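 also: plate controls were untreated wells for no effect and antibiotic for full effect; wells of about 80 µL received 100 nL stock; the first replicate is given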
# Autofluor counter: compound fluorescence in toxin protease inhibitor counterscreen; compound autofluorescence counterscreen, microsphere flow cytometry; stronger effect = higher value; AID 624483; fluorescence intensity (no concentration beside the values); 360,000 compounds, 3.1% hits;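 active = at least 3 SD above the mean of all compounds, about 16000 in these data; inconclusive = too few beads counted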;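 also: 100 nL of 1 mM stock went into each well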
# Mtb hypoxia rep: PubChem AID 1159583 | 300,000 compounds, 0.1% hits | fluorescence inhibition, % (no concentration beside the values) | M. tuberculosis hypoxia-regulated fluorescent reporter, fluorescence;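 active = 35 to 45% if threefold the growth effect, above 45% if 1.5-fold the growth effect; inactive = the rest, general growth blockers included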;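 also: wells of about 50 µL received 100 nL stock; 0% = vehicle wells and 100% = reference inhibitor wells; whole bacteria with a GFP reporter of the hypoxia response; strong numbers were not always called active; many hits fall short of the cut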
# PrP UTR inh: inhibition of PrP 5' UTR reporter expression. inhibition, % (test concentration not listed). cell-based PrP 5' UTR mRNA reporter, plate reader. AID 488862, 2010. 340,000 compounds, 0.35% hits;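 active = every replicate at 50% or more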;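 also: 0 = median of the neutral control wells; tested in H4 reporter cells; numbers are from one replicate; inactives centre near -14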
# BJeLR lethal: MLPCN primary cell-based screen for lethality selective to Ras in HRASV12 cells; BJeLR (HRASV12) viability, CellTiter-Glo ATP luminescence, 48 h; reference of the scale not given here; inhibition, % (test concentration not listed); 300,000 compounds, 0.17% hits;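 active = replicate mean above 50%; inconclusive = above 50% but judged a plate artefact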;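 also: 50 nL library stock added to about 25 µL; numbers are from one replicate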
# Sa RN4220 lethal: growth inhibition of S. aureus RN4220, primary screen, OD600; 16 h; inhibition, % (concentration not given with the values); 330,000 compounds, 0.33% hits; AID 1259311, 2017;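 active = z-score of -3 or lower and OD600 up to 0.18 on both plates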;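 also: plate controls were untreated cells for no effect and reference antibiotic for full effect; stock transfer was 100 nL into about 80 µL; one replicate is shown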
# Mtb hypoxia rep growth: further read-out of Mtb hypoxia rep, marked with its call; growth inhibition, %; measured here: M. tuberculosis growth (absorbance);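 0% = vehicle and 100% = reference antibiotic; read after six days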
# Numbers without * were called inactive; ? = inconclusive; nt = no result given; & = joins results of further samples.
SMILES,Sa ugtP lethal,Autofluor counter,Mtb hypoxia rep,Mtb hypoxia rep growth,PrP UTR inh,BJeLR lethal,Sa RN4220 lethal
Cn1nc(-c2ccc(C(=O)NCC3CCCO3)cc2)c2ccccc2c1=O (stereo not drawn),9,2335,2,-2,-11,2,1.2
COc1cccc(NC(=O)CCC2CCN(C(=O)c3sccc3C)CC2)c1,1,5299,5,7,-11,-12,-0.9
O=C1c2ccccc2C(=O)N1CC1CO1 (stereo not drawn),-4,3107,1,-6,-13,nt,-0.2
COC(=O)C1=C(C)NC(C)=C(C(=O)OC)C1c1ccc(-c2cccc([N+](=O)[O-])c2)o1,-2,4261,0,-2,-28,-19,-3.4
CCOc1ccc(C=NNC(=O)CSc2ccccn2)cc1O,4,nt,-2,-8,nt,nt,-3.2
O=C(NC1CCN(C(=O)N2c3ccccc3Sc3ccccc32)CC1)c1ccccc1F,-12,8214,18,5,-51,14,6.8
O=S(=O)(c1cccc2nonc12)N1CCN(c2ccc(F)cc2)CC1,3,3243,21,22,-6,-2,9.8
Cc1ccc(NC(=S)NN=C2CC(C)(C)Oc3ccc(O)cc32)cc1,-2,nt,-6,-7,nt,nt,-3.9
CSc1ccccc1C(=O)Nc1cccc([N+](=O)[O-])c1C,nt,4458,nt,nt,-1,4,nt
O=C(COC(=O)CCc1nc2ccccc2c(=O)[nH]1)NC(c1ccccc1)c1ccccc1,0,4732,-4,2,3,5,4.8
Cc1cccc(NC(=O)CN2CCN(CC(=O)Nc3cccc(C)c3)CC2)c1,1,5963,12,1,-37,-5,9.0
COc1ccc(OC)c2nc(-c3ccc4c(c3)OCO4)ccc12,3,4302,10,9,-67,0,6.0
CCOC(=O)c1ccc(S(=O)(=O)NNC(=O)COc2ccc(C)cc2)cc1,-4,2114,7,9,-17,-6,2.4
O=C(CCc1ccccc1)N1CCN(CCO)CC1,1,4779,nt,nt,-12,-2,0.2
CCN(CC)C(=O)Cn1c(=O)oc2ccccc21,2,5942,9,2,-12,11,4.2
O=C(c1ccccc1O)N1CCOCC1,0,4214,2,11,-20,1,1.1
CCOC(=O)C1CCN(CCC(=O)Nc2ccc(Br)c(C)c2)CC1,9,3869,3,-8,-16,-4,3.7
O=C(NS(=O)(=O)Nc1ccccc1)C1=C(N2CCCC2)COC1=O,0,4538,16,7,-11,nt,6.3
Nc1nc(SCC(=O)NCc2ccc3c(c2)OCO3)n[nH]1,9,3509,3,-4,-20,4,3.4
CC(CC(=O)Nc1cccc(C(F)(F)F)c1)=NNC(=O)c1cnccn1,0,nt,12,1,nt,nt,3.8
CCc1nnc(NC(=O)c2ccc(Cl)c(S(=O)(=O)N3CCc4ccccc4C3)c2)s1,11,9995,7,4,-23,-6,7.2
CC(OC(=O)c1nsc(Cl)c1Cl)C(=O)NCc1ccco1 (stereo not drawn),0,6894,11,5,-18,3,1.4
CC(=O)Nc1cccc(-c2csc(Nc3ccccn3)n2)c1,-17,6050,6,5,-99,9,17
O=C(COC(=O)C1CCN(c2ccc(C(F)(F)F)cn2)CC1)NCc1ccc(F)cc1,1,5627,7,-1,-6,-18,-2.3
COc1ccc(OC)c(S(=O)(=O)N2CCC(C(=O)N3CCCC3)CC2)c1,7,4000,-1,5,-9,4,0.6

# Next compounds follow.
SMILES,Sa ugtP lethal,Autofluor counter,Mtb hypoxia rep,Mtb hypoxia rep growth,PrP UTR inh,BJeLR lethal,Sa RN4220 lethal
CCC(c1nnc(SCCNCCO)n1CCN1CCOCC1)N(C)C (stereo not drawn),0,nt,10,-3,nt,4,5.3
NC(=NOC(=O)CSc1ccccc1)c1cccc([N+](=O)[O-])c1,12,nt,-4,8,nt,nt,1.7
COC(=O)c1ccc2c(=O)n(CCN3CCOCC3)c(SCC(=O)Nc3cccc(OC)c3)nc2c1,6,5357,3,5,-11,2,1.8
CC[n+]1c(/C=C/C=C/c2ccc(N(C)C)cc2)sc2ccccc21,82*,3041,24,24,5,13,88*
c1ccc(NC2=NCCN2CCCC2CCCC2)cc1,-8,4035,8,8,-10,nt,-7.3
Cc1cccc(N2CCN(C(=O)C3CCN(S(=O)(=O)c4c(C)noc4C)CC3)CC2)c1C,6,4860,5,-7,-27,-6,-0.3
O=C(COC(=O)c1cccc(S(=O)(=O)N2CCc3ccccc32)c1)Nc1ccc(Cl)cn1,-10,2071,2,3,0,0,-0.8
Oc1[nH]c2ccc(Br)cc2c1N=NC(=S)NCC1CCCO1 (stereo not drawn),nt,6068,nt,nt,-6,12,nt
C#CCNC(=O)C1=CC(c2ccc3c(c2)OCO3)C(CCCO)C(OCC)O1 (stereo not drawn),3&-5,nt,4&4,9&10,nt,nt,2.8&-2.2
O=C(N/N=C/c1cccc([N+](=O)[O-])c1)c1cc(-c2ccc3c(c2)OCO3)n[nH]1,nt,3855,nt,nt,-6,2,nt
O=S(=O)(c1ccc2c(c1)OCCO2)N1CCC(O)(c2ccc(Cl)cc2)CC1,-9,4287,-7,-1,-13,4,1.3
CC(=O)c1ccc(-n2c(-c3cc(-c4ccsc4)n[nH]3)n[nH]c2=S)cc1,3,3943,14,-5,-21,1,3.2
O=C(CSc1nc(-c2ccccc2)cc(=O)[nH]1)N1CCc2ccccc21,-8,3594,5,5,-16,nt,17
O=[N+]([O-])c1ccc(NCCCNS(=O)(=O)c2ccc(Cl)cc2)c(Cl)c1,-23,2252,1,2,-11,-1,-1.0
O=C(Nc1cccc(S(=O)(=O)N2CCCCCC2)c1)c1ccc2ccccc2n1,1,11373,7,-12,-39,-12,23
O=C(CN1C(=O)COc2ccc(Cl)cc21)Nc1ccc2c(c1)OCCO2,10,17358*,7,3,-17,2,4.2
CSc1nnc(N2C(=O)C(O)=C(C(=O)c3ccco3)C2c2ccccc2F)s1 (stereo not drawn),0,4375,-3,-11,-15,3,20
CCc1nnc(NCn2nc(C)cc2C)s1,-7,4129,0,12,-21,3,5.0
CC1(C)CC(NC(=O)c2cccc(S(=O)(=O)N(Cc3ccccc3)c3ccccc3)c2)CC(C)(C)N1,6,nt,4,3,-26,-8,-4.7
CCCNC(=O)CSc1ccc(S(=O)(=O)N2CCCC2)cn1,0,4000,1,9,-7,nt,2.4
CCOc1ccc(CCNC(=O)COC(=O)c2ccc(S(C)(=O)=O)cc2)cc1OCC,-3,5486,-6,8,3,3,1.4
CCCCC1=NN(C(=O)c2cccnc2)C(O)(C(F)(F)F)C1 (stereo not drawn),4,4271,13,-7,nt,-1,6.8
COc1ccc2[nH]c(=O)c(CN(c3ccccc3OC)S(=O)(=O)c3ccccc3)cc2c1,12,6323,3,-1,-12,-13,8.8
COc1ccc(C2=NOC(COc3ccc4c(C)cc(=O)oc4c3)C2)c(OC)c1 (stereo not drawn),51,3880,9,10,-24,-3,2.4
COc1ccccc1CN(CC(=O)NCc1ccc2c(c1)OCO2)C(=O)c1ccc2c(c1)OCCO2,-5,2996,nt,nt,-1,3,0.3

# Molecules above that have two or more sulfur atoms:
SMILES,Sa ugtP lethal,Autofluor counter,Mtb hypoxia rep,Mtb hypoxia rep growth,PrP UTR inh,BJeLR lethal,Sa RN4220 lethal
CCc1nnc(NC(=O)c2ccc(Cl)c(S(=O)(=O)N3CCc4ccccc4C3)c2)s1,11,9995,7,4,-23,-6,7.2
CC(=O)c1ccc(-n2c(-c3cc(-c4ccsc4)n[nH]3)n[nH]c2=S)cc1,3,3943,14,-5,-21,1,3.2
CSc1nnc(N2C(=O)C(O)=C(C(=O)c3ccco3)C2c2ccccc2F)s1 (stereo not drawn),0,4375,-3,-11,-15,3,20
CCCNC(=O)CSc1ccc(S(=O)(=O)N2CCCC2)cn1,0,4000,1,9,-7,nt,2.4

# New compounds follow.
SMILES,Sa ugtP lethal,Autofluor counter,Mtb hypoxia rep,Mtb hypoxia rep growth,PrP UTR inh,BJeLR lethal,Sa RN4220 lethal
Cc1cc(NC(=O)Cn2nc(C(F)(F)F)c3c2CCC3)n(-c2ccccc2)n1,-5,?,-10,-11,-1,-1,0.6
Cc1ccc(S(=O)(=O)N2CCOCC2)cc1C(=O)NC1CCN(Cc2ccccc2)CC1,6,2923,7,2,-21,nt,0.6
Cc1nn(Cc2ccccc2Cl)c(C)c1C(=O)NCc1ccco1,-2,3158,nt,nt,0,12,0.0
CCCCOc1ccccc1NC(=O)CC1Nc2ccccc2NC1=O (stereo not drawn),-9,11290,18,11,-18,2,14
COc1cccc(C(=O)O/N=C2\CCS(=O)(=O)c3sccc32)c1,nt,4323,nt,nt,-7,0,nt
C(=C\c1ccccc1)/CN1CCN(Cc2ccc3c(c2)OCCO3)CC1,10,nt,4,2,nt,-2,4.7
CCCCC(=O)Nc1ccc2c(c1)OCCO2,5,4165,8,8,-30,-6,2.4
S=C1CN=C(c2ccccc2Cl)c2cc(Cl)ccc2N1,1,3095,3,7,-20,-6,1.9
O=C(NCCCNc1ccnc2cc(Cl)ccc12)c1ccccc1F,1,3499,4,5,-26,12,-0.5
CC(C)(C)NC(=O)Nc1nnc(SCC(=O)NC2CCCCC2)s1,3,5329,-17,-6,-23,-4,4.1
O=c1[nH]c2ccccc2cc1CN(Cc1ccco1)S(=O)(=O)c1ccccc1,4,4450,8,3,-59,6,9.2
Cc1ccn2c(=O)nc(SCC(=O)N3CCCCC3)nc2c1,-2,4299,6,4,-1,1,3.2
CCOC(=O)C(=CNc1cc(OC)ccc1-n1cccc1)C(=O)OCC,-10,4304,-7,-7,-24,-3,1.7
O=S(=O)(/C=C/c1ccccc1)Nc1ccc(F)cc1,0,3923,8,5,-11,3,8.0
COc1ccc(/C=C/C(=O)NC(C)CCc2ccccc2)cc1 (stereo not drawn),82,2381,3,-1,-16,-10,-5.2
CC(=O)c1ccc(Nc2c(C)n(C)n(-c3ccccc3)c2=O)cc1,2,3373,7,5,-16,5,3.1
CCOc1ccc(C(=O)NN=Cc2c(C)[nH]c(=O)[nH]c2=O)cc1,7,nt,13,5,nt,nt,5.4
COC(=O)c1cccn(CC(=O)c2ccc(Cl)cc2Cl)c1=O,2,2593,-3,-2,-19,-3,0.7
Cc1cccc(N/C=C/c2onc(C)c2[N+](=O)[O-])c1,nt,2615,nt,nt,-117,2,nt
COC(C/C=C\[C@@H](O)[C@@H](C)OCc1ccccc1)OC,nt,2931,nt,nt,-12,3,nt
O=C(CN1CCN(Cc2ccc(F)cc2)CC1)Nc1ccccc1F,0,3737,1,16,-4,4,3.7
CN(C)CCCNC(=S)NCCNc1nc2cc3c(cc2cc1C#N)OCO3,1,3343,-1,-2,-3,2,3.5
Cc1ccn2cc(CCNC(=O)c3ccc(Br)o3)nc2c1,-3,5852,6,11,-14,-2,-12
Cc1oc(C)c(C(N)=O)c1C(N)=O,7,3524,nt,nt,-5,7,3.9
O=C(c1ccc([N+](=O)[O-])c(CS(=O)(=O)c2ccc(Cl)cc2)c1)N1CCCC1,4,2795,5,-2,-21,-1,4.3

# Next part:
SMILES,Sa ugtP lethal,Autofluor counter,Mtb hypoxia rep,Mtb hypoxia rep growth,PrP UTR inh,BJeLR lethal,Sa RN4220 lethal
Cc1cc(C)nc(N/N=C/c2cc(Br)ccc2O)n1,nt,4211,nt,nt,13,2,nt
Cc1cc(=O)oc(C)c1C(=O)NCCCN1CCN(c2ccc(F)cc2)CC1,3,11577,-7,8,-23,-4,2.2
COc1ccc2c(=O)c3c(=O)n(CCc4ccccc4)c(C(C)C)nc3oc2c1,15,4504,1,-4,-13,-17,2.1
CC(=O)c1c(C)oc2ccc(NS(=O)(=O)c3ccc(C)cc3)cc12,-5,3042,-7,-4,-3,-5,6.6
Cn1c2ccccc2c(=O)c2c(=O)n(Cc3ccco3)c(-c3ccc(Cl)cc3Cl)nc21,-9,nt,-2,10,nt,-3,-1.5
CCOc1ccc(NC(=O)c2cc3cc4ccc(C)cc4nc3o2)cc1,3,nt,8,12,nt,2,2.7
OC(COc1cccc2ccccc12)CN1CCN(c2ccccc2)CC1 (stereo not drawn),-2,3158,1,-1,-23,-4,1.8
COc1ccccc1CNC(=O)C1CC2Cn3c(nc4ccccc43)C2N1C (stereo not drawn),0,4101,7,10,-14,-19,6.3
CCCNS(=O)(=O)c1ccc(OCC(=O)N2CCN(Cc3ccc4c(c3)OCO4)CC2)cc1,2,3402,16,14,2,14,4.1
CC(=O)N1CCN(CC(=O)Nc2c(Cl)cccc2Cl)CC1,0,9349,10,11,-8,-19,2.8
CC1(C)CC(=O)c2cc(O)ccc2O1,5,7206,2,7,-20,5,4.4
COc1ccc(C(=O)Nc2ccc(OC)c([N+](=O)[O-])c2)cc1Br,4,2493,-1,13,-17,-9,-0.2
Nc1nnnn1/N=C/c1cccc(OCc2ccccc2Cl)c1,nt,9749,nt,nt,-48,8,nt
